RecA intein inh – Mtb RecA intein splicing inhibition. actives 0.75% (n = 290,000). inhibition, %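 (about 9 µM by stock and volumes)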. AID 2221. cell-free RecA intein splicing, fluorescence. P9WHJ3; in the data active = inhibition above about 30%; inconclusive = no clear call, values can overlap the other calls;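 also: 0% = vehicle wells and 100% = reference inhibitor control wells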
Target sequence (P9WHJ3 whole entry, looked up): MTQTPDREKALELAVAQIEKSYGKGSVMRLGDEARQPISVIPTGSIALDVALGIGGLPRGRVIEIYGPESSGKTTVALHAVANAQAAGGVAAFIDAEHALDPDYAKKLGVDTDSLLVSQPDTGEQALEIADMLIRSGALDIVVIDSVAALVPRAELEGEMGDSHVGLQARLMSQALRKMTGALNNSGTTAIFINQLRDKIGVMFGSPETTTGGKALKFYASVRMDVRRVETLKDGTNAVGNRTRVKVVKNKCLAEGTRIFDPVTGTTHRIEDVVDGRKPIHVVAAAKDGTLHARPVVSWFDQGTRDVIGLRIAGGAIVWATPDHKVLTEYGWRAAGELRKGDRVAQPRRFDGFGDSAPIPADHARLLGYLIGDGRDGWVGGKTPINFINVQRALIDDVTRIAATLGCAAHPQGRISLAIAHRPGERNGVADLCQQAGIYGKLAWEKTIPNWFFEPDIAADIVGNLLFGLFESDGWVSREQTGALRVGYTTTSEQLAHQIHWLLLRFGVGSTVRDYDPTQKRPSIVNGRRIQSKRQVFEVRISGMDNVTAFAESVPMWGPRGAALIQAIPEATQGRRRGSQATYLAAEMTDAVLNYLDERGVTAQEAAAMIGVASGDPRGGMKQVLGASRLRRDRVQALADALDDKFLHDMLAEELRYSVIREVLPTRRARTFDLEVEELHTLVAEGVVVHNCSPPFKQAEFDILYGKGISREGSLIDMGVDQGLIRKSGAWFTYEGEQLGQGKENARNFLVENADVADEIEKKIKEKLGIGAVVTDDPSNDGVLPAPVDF
Mtb H37Rv – M. tuberculosis H37Rv growth inhibitors, H37Rv strain (AID 1626). M. tuberculosis H37Rv growth inhibition; higher % means a stronger effect. inhibition, % at 10 µM; hits with a dose series show IC50 in µM. actives 0.95% (n = 220,000);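 active = confirmed in a dose series; inconclusive = inhibition above 80% but not taken into the dose series; inactive = below 80% or under 30% at every dose of the series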;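 also: bacteria incubated seven days before Alamar blue readout; 0% = bacteria only wells and 100% = bacteria with antibiotic wells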
YopH PTP inh – inhibitors of Yersinia enterocolitica YopH tyrosine phosphatase | fluorescence Ex485/Em525 | inhibition, %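 (about 10 µM by stock and volumes)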 | actives 0.16% (n = 140,000) | AID 898;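 active = inhibition of 50% or more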;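 also: controls were vehicle for no effect and minimum signal wells for full effect; inactives centre near -20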
Mtb betalactam – beta-lactam sensitization of Mtb H37Rv. actives 0.27% (n = 330,000). inhibition, % at 25 µM. AID 434955. M. tuberculosis H37Rv growth with meropenem, percent inhibition; hits of this screen are not shown here;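 active = about 74% or more and at least 40 points above the plate without the antibiotic, then above 30% in a dose series; inconclusive = first-round hits that could not be retested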;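 also: growth measured after seven days incubation then overnight dye step; 0% = bacteria only wells and 100% = bacteria with antibiotic; twin plates without the antibiotic show which effects depend on it; some results filed as inactive read as strong as hits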
Arbovirus anti – arbovirus infection inhibition. arbovirus infection cell-based antiviral screen. inhibition, % at 10 µM. actives 0.37% (n = 200,000);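 active = inhibition from about 30%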;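 also: bluetongue infection of BSR cells; cell survival read as ATP light after 72 h; 0% = infected wells without compound and 100% = uninfected wells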
Arbovirus anti repeat – further read-out of Arbovirus anti, marked with its call; inhibition, %; measured here: 10K subset replicate screen; many hits read low in the repeat;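 first of two repeat runs on a subset; 0% = infected and 100% = uninfected wells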
Numbers without * were called inactive; u = inconclusive; x = not tested or not shown. A portion of the library; the hit share may differ from the screen's.

SMILES	RecA intein inh	Mtb H37Rv	YopH PTP inh	Mtb betalactam	Arbovirus anti	others
COC(=O)c1ccc(C(=O)OC)c(NC(=S)N2CCC(C(N)=O)CC2)c1	-2.9	2%	x	0	8
O=c1ccc(-c2ccc(S(=O)(=O)Nc3ccc(F)cc3)o2)n[nH]1	-3.0	x	x	0	x
CC(=O)c1cccc(NS(C)(=O)=O)c1	2.7	0%	x	5	1
CCCC(=O)NC(C)c1nc(-c2ccc(C)cc2)no1 (stereo not drawn)	0.8	-3%	x	-12	x
COc1cccc(-n2c(C)nnc2SCC(=O)Nc2ccccc2N2CCOCC2)c1	-3.3	-3%	-21	-5	1
CC(C)Cc1nn2c(=O)cc(COc3ccc(NC(=O)c4ccco4)cc3)nc2s1	1.9	x	x	1	x
O=C(O)CCNS(=O)(=O)c1ccc2c(c1)Cc1ccccc1-2	-0.6	-5%	-48	9	9
O=C(NCCc1ccccc1)C1CCC(CNc2nc(=S)[nH]c3ccccc23)CC1 (stereo not drawn)	x	1%	x	9	-8
Cc1ccc(S(=O)(=O)Nc2ccc(-c3nnc(SCc4ccccc4Cl)o3)cc2)cc1	9.4	0%	-41	2	-22
CC(=O)c1c(C)[nH]c(C(=O)Nc2cccc(S(=O)(=O)N(C)C)c2)c1C	-0.5	0%	x	-2	-11
Cn1cc(CCC(=O)N2CCCC(C(=O)c3ccc(C(C)(C)C)cc3)C2)cn1 (stereo not drawn)	1.3	7%	x	0	0
COc1ccc(S(=O)(=O)N(CCc2ccccc2)CC(=O)O)cc1C	-2.0	-7%	-18	-14	3
O=C(O)CCC(=O)CCC(=O)c1ccc(Cl)cc1	-2.1	-5%	-17	33	6	Arbovirus anti repeat=4
O=C(Nc1ccccc1-c1nnn(CC(=O)N2CCOCC2)n1)c1ccccc1F	-0.2	-1%	x	-5	-3
COc1ccccc1CNC(=O)CS(=O)(=O)Cc1ccccc1	-0.5	x	x	-1	x
Cc1cc(C)cc(NC(=O)c2cc3c(=O)n4ccccc4nc3s2)c1	-1.2	x	x	1	x
c1ccc2c(c1)ncn2CCN1CCCCC1	x	-8%	-6	-1	-3
CCOC(=O)CC1C(=O)NCCN1C(=O)c1cccc(OC)c1 (stereo not drawn)	0.0	x	x	-1	x
CC(C)Cn1c(SCC(=O)N2CC(=O)Nc3ccccc32)nc2ccccc21	2.8	6%	-12	-5	3
Cc1ccc(NC(=O)NCCc2ccc(S(N)(=O)=O)cc2)cc1	-0.5	-5%	-26	-5	-1
N/C(=N\OC(=O)CSc1ccccc1)c1ccccn1	9.9	x	x	6	x
CCCN(CC(=O)Nc1ccccc1OC)C(=O)c1cccc(S(=O)(=O)NCc2ccccc2)c1	9.3	x	x	-2	x
N#CC1(C#N)C(c2ccccc2)OC23CCCCCC2C1(C#N)C(=N)O3 (stereo not drawn)	-58	-3%	-11	1	2
CC(=O)Nc1cccc(Oc2ccc3c(c2)C(=O)NC3=O)c1	-1.3	x	x	-2	x
CN(C)N=Nc1ccc2nc[nH]c2c1	2.6	-11%	x	-8	x

(further entries)
SMILES	RecA intein inh	Mtb H37Rv	YopH PTP inh	Mtb betalactam	Arbovirus anti	others
CC1=C(C(=O)N2CCCC(N3CCN(c4cccc(C(F)(F)F)c4)CC3)C2)OCCO1 (stereo not drawn)	0.9	x	x	-13	x
CC(=O)N1CCN(C(=S)Nc2ccc(Oc3ccccc3)cc2)CC1	-4.0	-5%	x	0	11
CC(C)(C)c1cc(NC(=O)COC(=O)c2ccc3c(=O)n4c(nc3c2)CCC4)n(-c2ccccc2)n1	-0.5	4%	-4	-11	2
Cc1nn(CCOc2ccccc2)c(=O)n1-c1ccccc1	0.9	-6%	-1	-4	4
O=C(NC1CCCCCC1)c1cc(S(=O)(=O)N2CCOCC2)ccc1N1CCCCC1	4.8	-5%	-34	2	-13
O=C(CN(c1ccc(F)cc1)S(=O)(=O)c1ccccc1)NCCSC1CCCCC1	-0.4	3%	-27	-6	1
CCOC(=O)N1CCN(Cc2cn[nH]c2-c2cccc3ccccc23)CC1	1.8	2%	x	-6	4
COC(=O)c1ccc(COc2cccc3c2CCN(Cc2ccccc2)C3=O)o1	9.7	x	-29	5	-3
CC1CCC(C(C)C)C(OP(=O)(c2ccc(N(C)C)cc2)C(O)c2cccnc2)C1 (stereo not drawn)	5.1	6%	-5	2	-7
CN(C)CCCNc1c(C(=O)O)cnc2c1cnn2C	x	-9%	-27	x	15
CC1=C/C(=N\OC(=O)/C=C/c2ccccc2)C(C)=CC1=O	-3.1	3%	-39	79	4
Cc1cc(NS(=O)(=O)c2ccc(OCCNS(C)(=O)=O)cc2)no1	0.0	-5%	-41	-1	1
O=C(NCc1ccco1)c1ccc(N2CCOCC2)c([N+](=O)[O-])c1	x	-2%	x	4	1
Cc1ccc2c(NC(=O)C3CC3)c(C)ccc2n1	1.6	-7%	-19	x	8
CCOCN(C(=O)Cn1c(COC)nc2ccccc21)c1c(C)cccc1CC	-1.1	-7%	7	-2	-8
CCc1ccccc1N1C(=O)/C(=C/c2ccc(N3CCN(C)CC3)o2)C(=O)NC1=S	-1.1	-1%	-13	11	9
O=C(CN(C(=O)c1cc2c(s1)CCC2)C1CCCC1)NCc1cccs1	1.9	-6%	-34	-8	-16
C#CCOCCOCCOCCNc1nc(N2CCN(C(=O)[C@H](CCC(=O)O)n3cc(C(N)CO)nn3)CC2)nc(N2CCN(C(=O)[C@H](CCC(=O)O)n3cc(C(N)[C@H](C)CC)nn3)CC2)n1 (stereo partly drawn)	1.3	x	x	-8	2
CC1CCCCN1C(=O)C1CCN(S(=O)(=O)c2ccc(-n3cnnn3)cc2)CC1 (stereo not drawn)	0.8	x	x	-2	x
C/C(=N\NC(=O)c1cc(-c2cccnc2)nc2ccccc12)c1ccccc1O	0.2	2%	-42	6	-34
COc1ccc(CNCc2ccccc2C(F)(F)F)cc1	0.1	x	x	-4	x
CC(C)(C)OC(=O)N1CCC(Cc2cc(-c3ccc(Cl)cc3)no2)(C(=O)O)CC1	0.6	x	x	4	x
CC1=NN(C(=O)c2ccccc2-n2cccc2)C(O)(C(F)(F)F)C1 (stereo not drawn)	-6.0	-4%	-29	-9	7
Cc1ccc(NC(=O)CCC(=O)NNS(=O)(=O)c2ccccc2)c(C)c1	-0.5	5%	11	-10	8
Nc1ccc2c(c1)nc(Cc1ccccc1)n2CCO	2.5	-1%	x	-6	-3

Next results.
SMILES	RecA intein inh	Mtb H37Rv	YopH PTP inh	Mtb betalactam	Arbovirus anti	others
CN(c1ccccc1)c1nccc(=O)[nH]1	0.9	x	x	-3	x
CCCC(=O)NCCc1ccc(S(N)(=O)=O)cc1	-0.8	-12%	3	0	7
CCOC(=O)N1CCC(NC(=O)C2CCCN(S(=O)(=O)c3ccc4c(c3)oc(=O)n4C)C2)CC1 (stereo not drawn)	-1.1	-4%	-27	1	1
COc1ccc(C2c3c4c(n(C)c3CCN2C)CCN(C)C4c2ccc(OC)cc2)cc1 (stereo not drawn)	x	-5%	-11	-12	14
CCOC(=O)c1c(S(=O)(=O)NCC(=O)N2CCN(c3ccccc3)CC2)c(C)n(C)c1C	-0.4	x	x	-1	x
O=C(O)c1ccn2c(C(=O)c3ccc(Cl)cc3)c(-c3ccccc3)cc2c1	1.8	2%	x	7	x
Cc1cccc(NC(=S)NC2CCSc3ccccc32)c1 (stereo not drawn)	0.3	x	x	-1	x
CC(C)n1cc(C(=O)N2CCCC(N3CCN(c4ccc(F)cc4)CC3)C2)cn1 (stereo not drawn)	-5.7	x	x	-4	x
Cc1ccc(NC(=O)c2c(O)c3ccccc3n(C)c2=O)nc1	-2.0	-4%	-32	72	33*	Arbovirus anti repeat=20*
Cc1cc(C)c2sc(N(CCCN(C)C)C(=O)c3ccc(S(=O)(=O)N(C)Cc4ccccc4)cc3)nc2c1	21	x	x	97	x
O=C1N/C(=C/c2ccco2)C(=O)N1Cc1ccccc1F	1.6	1%	-19	4	-2
COc1ccc(N2CCN(S(=O)(=O)c3cccs3)CC2)cc1	0.8	-2%	0	u	3
CS(=O)(=O)N1CCN(c2ccc(NC(=O)CSc3nnc(-c4ccco4)o3)cc2)CC1	-3.0	0%	x	0	-10
COc1ccc(CC(=O)NNC(=S)Nc2ccccc2)cc1Cl	4.4	11%	x	-8	1
Cc1ccc(S(=O)(=O)N2CCC(C(=O)OCC(=O)N(C)c3ccccc3)CC2)cc1C	1.0	x	x	-9	x
Cc1ccc(S(=O)(=O)NCCCN2CCCC2)cc1	-1.0	x	x	5	x
CC(/C=N/NC(=O)Cn1nnc(N)n1)=C\c1ccc(C(C)C)cc1	5.2	3%	x	8	x
CCNCc1cc2cc(C)ccc2[nH]c1=O	-3.3	-2%	-79	-1	1
CCC(C(=O)N1CCC2(CC1)OCCO2)n1c2ccccc2c2nc(=O)cc(C)n21 (stereo not drawn)	0.5	x	x	3	x
Fc1ccc(Cn2nnnc2CN2CCN(C3CCCC3)CC2)cc1	0.7	-4%	-31	-5	2
Cc1ccc2[nH]c(=O)c(CN(C(=O)c3cccc([N+](=O)[O-])c3)C(C)C)cc2c1	-1.5	4%	x	4	x
CNC(=O)c1c(NC(=O)CS(=O)(=O)c2ccccc2)sc(C)c1C	-0.5	x	x	-2	x
CCCc1cc(C(=O)Nc2sc(C)c(CC)c2C#N)no1	1.9	x	-34	15	10	Arbovirus anti repeat=9
CCOC(=O)C(NC(=O)c1ccccc1)=C1CCCCC1	1.4	1%	-21	1	0
COC(=O)Cc1ccc(OC(=O)c2cccc(S(=O)(=O)N3CCN(C)CC3)c2)cc1	0.5	x	x	-17	x

More structures follow:
SMILES	RecA intein inh	Mtb H37Rv	YopH PTP inh	Mtb betalactam	Arbovirus anti	others
Cc1cc(C)nc(NC(=O)/C=C/c2ccccc2Cl)c1	-2.4	9%	-12	1	-6
Cc1ccc(S(=O)(=O)Nn2c(C)nnc2-n2nc(C)cc2C)cc1	-0.8	3%	-5	-8	-1
COC(=O)/C=C1\S/C(=N/N=C/c2ccc(Cl)cc2)NC1=O	0.4	13%	x	-7	x
C/C(=C\C(=O)c1ccc(Br)cc1)Nc1ccc(Cl)cc1	0.5	6%	-32	47	2
CCOC(=O)c1nn(C)c(C)c1Cl	-7.0	-2%	-44	-7	-2
Cc1ccccc1NC(=O)C(C)c1ccc(-c2ccccc2)c(F)c1 (stereo not drawn)	-0.3	2%	-18	-8	-27
CSCC[C@H](NC(=O)N1CCn2c1nc1ccccc12)C(=O)NC1CCCCC1	0.8	x	x	5	x
COC(=O)[C@H](Cc1ccccc1)NC(=O)Nc1ccc(OC)cc1	-1.8	-2%	x	4	x
CCOC(=O)c1sc(/S(C)=N\S(=O)(=O)c2cccc(Cl)c2)c2c1CCC=C2 (stereo not drawn)	5.2	-7%	x	-10	x
Cc1ccc(S(=O)(=O)N(CC(=O)NCCSc2ccccn2)c2ccc(C)c(C)c2)cc1	7.4	8%	-28	3	-3
O=C(Nc1ccccc1F)c1ccc(-n2cncn2)nc1	-3.2	x	-1	-2	-4
O=C(/C=C/c1ccccc1[N+](=O)[O-])N1CCCCC1	-1.7	3%	x	-4	0
Cc1cc2oc(C(=O)N(Cc3cccs3)C3CCS(=O)(=O)C3)cc(=O)c2cc1Cl (stereo not drawn)	10	1%	x	1	x
CCOC(=O)c1c(C)n(C)c2ccc(O)c(CN(CC)CC)c12	-4.8	-5%	-15	3	10
COC(=O)c1cc(OC)c(OC)cc1NC(=O)CSc1ccccc1	1.9	2%	-2	32	7
COc1cc(S(=O)(=O)NCCN2CCOCC2)ccc1-n1cnnn1	x	-1%	x	5	4
CN1C(=O)[C@H](Cc2ccc([N+](=O)[O-])cc2)NC1=S	-3.7	x	x	-13	x
O=C(COC(=O)c1ccc(S(=O)(=O)N2CCOCC2)cc1)NCc1cccs1	-0.6	1%	x	-8	2
CC1=C(C(=O)Nc2ccccn2)C(c2ccc(Cl)cc2)NC(=S)N1 (stereo not drawn)	0.7	-5%	x	-7	-12
Cc1cc2cc(CNC(=O)C3CC3)ccc2n1C	7.6	4%	-30	5	2

Looked up by structure from the entries so far:
SMILES	RecA intein inh	Mtb H37Rv	YopH PTP inh	Mtb betalactam	Arbovirus anti	others
O=C(/C=C/c1ccccc1[N+](=O)[O-])N1CCCCC1	-1.7	3%	x	-4	0
CC1=C(C(=O)Nc2ccccn2)C(c2ccc(Cl)cc2)NC(=S)N1 (stereo not drawn)	0.7	-5%	x	-7	-12
Cc1cc2cc(CNC(=O)C3CC3)ccc2n1C	7.6	4%	-30	5	2
COC(=O)[C@H](Cc1ccccc1)NC(=O)Nc1ccc(OC)cc1	-1.8	-2%	x	4	x
